Screening results as filed in PubChem.
VDR inh = Inhibitors of the vitamin D receptor (VDR): qHTS. Vitamin D3 receptor (Homo sapiens), P11473. VDR-SRC2-3 peptide fluorescence polarization, 2 h. 0.93% of 400,000 active. Potency, µM, inactives show max response, negative = inhibition, hits mostly inhibitors; active = well fitted inhibition curve with a large enough effect; inconclusive = small, poorly fitted or top-dose-only effect, or another doubt; inactive = no such curve, though single readings can be large or run the other way; note: series mostly up to about 120 µM
Target sequence (P11473 whole entry, looked up): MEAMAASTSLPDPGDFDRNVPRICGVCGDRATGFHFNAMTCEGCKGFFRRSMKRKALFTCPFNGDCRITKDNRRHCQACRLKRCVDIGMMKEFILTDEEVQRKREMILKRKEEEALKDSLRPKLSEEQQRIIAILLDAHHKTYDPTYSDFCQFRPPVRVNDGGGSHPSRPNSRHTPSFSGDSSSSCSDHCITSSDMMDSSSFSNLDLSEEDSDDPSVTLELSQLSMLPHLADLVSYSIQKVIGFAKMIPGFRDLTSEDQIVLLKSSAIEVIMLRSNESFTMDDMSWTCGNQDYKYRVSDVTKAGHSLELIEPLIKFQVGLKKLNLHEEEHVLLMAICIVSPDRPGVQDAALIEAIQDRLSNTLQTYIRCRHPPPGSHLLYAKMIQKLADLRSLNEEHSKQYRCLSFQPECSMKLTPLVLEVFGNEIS
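Compounds are added to VDR with labelled SRC2-3 coactivator peptide and held 2 h at room temperature. Inhibition of the VDR–peptide interaction is then read as a change in fluorescence polarization.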
Starred values were filed as active, the others as inactive; & = joins results of further samples. % is set by controls: 0 for no effect and ±100 for the full control effect; potency is the fitted concentration of half-maximal effect. These rows are one share of the data. The share of hits here may be higher or lower than overall.

`CC1(C)CC(=O)C=C(NCCN2CCN(C(=O)Nc3ccc(Cl)cc3)CC2)C1` gave VDR inh -4%.
For COc1ccc([C@@H](C)NC(=O)c2ccc3oc(C(C)C)nc3c2)cc1 the results were VDR inh -8%.
For CCOc1ccc(S(=O)(=O)N2Cc3ccccc3CC2C(=O)NCCCn2ccnc2)cc1 (stereo unspecified) the results were VDR inh -8%.
CCOC(=O)N1CCN(c2ccc([N+](=O)[O-])cc2)CC1 was read as VDR inh -18%.
For O=C(Cn1cnc2c(OCc3ccccc3)ncnc21)NCCCn1ccnc1 the results were VDR inh 7%.
`Cc1cc(C(=O)Nc2cccc(S(=O)(=O)N3CCOCC3)c2)c2ccccc2n1` gave VDR inh -20%.
Cc1cc(C(F)(F)F)n2nc(-c3cnn(C)c3C(F)(F)F)c(Cl)c2n1 was read as VDR inh 19%.
For CCOc1ccc(C2CC(=O)n3nc(-c4ccc(C)cc4)nc3S2)cc1 (stereo unspecified) the results were VDR inh -7%.
Screening CCOc1ccc(NC(=O)c2cc(S(=O)(=O)N3CCC(C)CC3)cn2C)cc1 returned VDR inh -2%.
Screening COc1cccc(-n2c(CCn3nc(C)c([N+](=O)[O-])c3C)n[nH]c2=S)c1 returned VDR inh 7%.
CCC(=O)NC(=S)Nc1ccc(NC(=O)c2ccc([N+](=O)[O-])cc2)cc1 was read as VDR inh -9%.
Screening CC(C)(C)NCC(=Cc1ccccc1)C(=O)c1ccccc1 returned VDR inh inconclusive.
`CCn1c(=S)sc2c(=O)n(CC(=O)Nc3cccc(OC)c3)c(C)nc21` gave VDR inh 2%.
Screening Cc1cc(C)cc(N2CCn3c2nc2c3c(=O)n(C/C=C/c3ccccc3)c(=O)n2C)c1 returned VDR inh 3%.
For CCCOC(=O)c1ccc(-c2c(C)noc2-c2ccc(OC)cc2O)o1 the results were VDR inh 1%.
For Cc1ccc(NC(=O)CN2C(=O)C(C)Oc3ccccc32)nc1 (stereo unspecified) the results were VDR inh -15%.
`CCOC(=O)c1ccc(-c2ccc(/C=N/NC(=O)CN(c3ccccc3Cl)S(C)(=O)=O)o2)cc1` gave VDR inh 1%.
`Cc1sc2nc(SCc3ccccc3)n(Cc3ccco3)c(=O)c2c1C` gave VDR inh -6%.
For Fc1cccc(Cc2noc(CN3CCCCC3c3ccccn3)n2)c1 (stereo unspecified) the results were VDR inh -9%.
`Cc1ccc(-c2cc(C(=O)NCCCN3CCCC3)c3ccccc3n2)cc1C` gave VDR inh 9%.
`COc1ccccc1NC(=O)C1=C(C)Nc2nnnn2C1c1cccc(Br)c1` (stereo unspecified) gave VDR inh 11%.
COc1ccc(C(C)NC(=O)Cc2cccs2)cc1OC (stereo unspecified) was read as VDR inh 1%.
For COc1ccc(-c2nnc(SCC(=O)NCc3cccs3)n2CC(C)C)cc1 the results were VDR inh 11%.
For COc1ccc(N(C(=O)c2cnccn2)C(C(=O)NC2CCCCC2)c2ccc(O)cc2)cc1 (stereo unspecified) the results were VDR inh -3%.
`O=C(CN1CCN(Cc2ccc3c(c2)OCO3)CC1)c1c[nH]c2ccccc12` gave VDR inh -2%.
`COc1cc(C(O)C(=O)O)ccc1O` (stereo unspecified) gave VDR inh -1%&-9%.
For COc1ccc(NC(=O)CSc2nccn2Cc2ccc(F)cc2)cc1 the results were VDR inh -7%.
`CC(C)(C)c1ccc(C(=O)N2CCC(C(=O)c3ccccc3)CC2)cc1` gave VDR inh -16%.
Screening COc1ccc(CN(C(=O)CNC(=O)c2ccco2)C(C(=O)NCC2CCCO2)c2ccc(OC)c(OC)c2)cc1 (stereo unspecified) returned VDR inh -11%.
Screening COc1cccc(C(=O)N2N=C(c3ccccc3)CC2(O)C(F)(F)F)c1 (stereo unspecified) returned VDR inh -2%.
`COc1ccc(NC(=O)c2c(NC(=O)c3ccc(Br)cc3)sc3c2CCCC3)cc1` gave VDR inh inconclusive.
COc1ccc(CCNC(=O)c2ccc(-c3ccc([N+](=O)[O-])cc3)o2)cc1OC was read as VDR inh -13%.
For COc1cc(Cn2c(N)c(C#N)c3nc4ccccc4nc32)cc(OC)c1 the results were VDR inh 1%.
For CCOc1cc(/C=C2\CCn3c2nc2cc(Cl)ccc2c3=O)ccc1O the results were VDR inh -11%.
CCN(CC(=O)NCc1cccs1)C(=O)c1ccc([N+](=O)[O-])o1 was read as VDR inh -18%.
`COc1ccc(CCNC(=O)CSc2ccccn2)cc1OC` gave VDR inh -8%.
For CCOC(CNC(=O)CN1C(=O)COc2ccc(S(=O)(=O)N3CCOCC3)cc21)OCC the results were VDR inh -19%.
`COc1ccc(OCc2cc(C(=O)N3CCCC(OC)C3)no2)c2ccccc12` (stereo unspecified) gave VDR inh -10%.
For COc1cc(OC)cc(C(=O)OC(C)C(=O)NC2CCCc3ccccc32)c1 (stereo unspecified) the results were VDR inh 2%.
Screening CC(C)Oc1ccc(CCNC(=O)C2CCC(=O)N(Cc3cccc(F)c3)C2)cc1 (stereo unspecified) returned VDR inh -4%.
CC(C)CC1(C)NC(=O)N(CC(=O)Nc2ccc(F)c(F)c2F)C1=O (stereo unspecified) was read as VDR inh 14%.
`COc1ccc(NC(=O)Nc2nnc(N3CCCC3)s2)cc1` gave VDR inh 16%.
For O=C(NCCc1ccccc1)C1CCN(Cc2cccc3ccccc23)CC1 the results were VDR inh -4%.
`CCC1CCCCN1S(=O)(=O)c1cc(C(=O)Nc2ccc(C)c(F)c2)ccc1F` (stereo unspecified) gave VDR inh 14%.
For Cc1ccc(SCC(=O)Nc2cc([N+](=O)[O-])ccc2O)cc1 the results were VDR inh inconclusive.
Cc1cc(C)n(-c2nc3sc4c(c3c3nnc(SCC(N)=O)n23)CC(C)(C)OC4)n1 was read as VDR inh 10%.
Screening CC(C)(C)C(=O)NC1(C(F)(F)F)C(=O)Nc2c1c(=O)[nH]c(=O)n2Cc1ccco1 (stereo unspecified) returned VDR inh -1%.
For COCCN(C(=O)COC(=O)c1ccc(C)s1)c1c(N)n(Cc2ccccc2)c(=O)[nH]c1=O the results were VDR inh -6%.
Screening COc1ccc(/C(C)=N/N2C(C)CCCC2C)c(OC)c1 (stereo unspecified) returned VDR inh -7%.
`O=C(Nc1ccccc1C(=O)O)c1cc(S(=O)(=O)N2CCOCC2)c(Br)s1` gave VDR inh 3%.
N#CCSc1nc2ccc(N3CCOCC3)cc2c(=O)n1CCc1ccccc1 was read as VDR inh -2%.
`CC1(C)Cc2cccc(OCC(O)CNCc3ccccn3)c2O1` (stereo unspecified) gave VDR inh -20%.
For CCC(CC)c1nn2c(N)c(/C=C3\C(C)=Nc4ccccc43)c(=O)nc2s1 the results were VDR inh 15%.
O=C(COC(=O)C12CC3CC(CC(Cl)(C3)C1)C2)Nc1ccc2[nH]c(=O)[nH]c2c1 was read as VDR inh 0%.
Screening Nc1ccccc1Sc1ccc(C(F)(F)F)cc1[N+](=O)[O-] returned VDR inh 8%.
`COc1cc(C2Nc3ccccc3C(=O)N2c2ccccc2OC)ccc1O` (stereo unspecified) gave VDR inh -6%.
Screening CCCc1nnc(SCC(=O)N2C(C)CCCC2C)n1CC (stereo unspecified) returned VDR inh 2%.
`COc1ccc(NC(C)=O)cc1NC(=O)c1ccc(Cl)cc1` gave VDR inh 3%.
Cc1cc(C)c(NC(=S)NC(CO)(CO)CO)c(C)c1 was read as VDR inh -3%.
Screening COC(=O)/C=C(\C)NC(=O)c1ccccc1Cl returned VDR inh 22%.

Random excerpt: 2 compounds from above, in no set order.
Screening CC(C)(C)C(=O)NC1(C(F)(F)F)C(=O)Nc2c1c(=O)[nH]c(=O)n2Cc1ccco1 (stereo unspecified) returned VDR inh -1%.
Screening Cc1cc(C)cc(N2CCn3c2nc2c3c(=O)n(C/C=C/c3ccccc3)c(=O)n2C)c1 returned VDR inh 3%.

Next results
Screening O=C(NCCCn1ccnc1)c1ccc(Cl)cc1 returned VDR inh 0%.
CCOc1ccc2nc(NC(=O)C3CCCN(S(=O)(=O)c4c(C)noc4C)C3)sc2c1 (stereo unspecified) was read as VDR inh 15%.
Screening Cc1csc(-c2coc3cc(O[C@@H]4O[C@H](CO)[C@@H](O)[C@@H](O)[C@H]4O)ccc3c2=O)n1 returned VDR inh 9%.
Cc1ccccc1Cn1nnc2c(=O)[nH]c(C3CCN(C(=O)c4ccccc4Cl)CC3)nc21 was read as VDR inh 1%.
Screening COc1ccc(CCNc2oc(/C=C/c3ccc(OC)c(OC)c3)nc2C#N)cc1 returned VDR inh 0%.
For Fc1cc(Br)cc(F)c1NC(=S)N1CCOCC1 the results were VDR inh 6%.
For O=C(Cn1nnc(-c2ccccc2F)n1)Nc1cccc2ncccc12 the results were VDR inh -13%.
For CC(OC(=O)c1ccc(-c2ccc([N+](=O)[O-])cc2)o1)C(=O)NC(N)=O (stereo unspecified) the results were VDR inh 7%.
Cc1ccc2cccc(OCCCOc3ccccc3F)c2n1 was read as VDR inh -19%.
For Cc1ccc(C2=NOC3(CC(=O)N(c4ccc(C)cc4)C3=O)C2)cc1 (stereo unspecified) the results were VDR inh -11%.
For CC(Sc1nncs1)C(=O)NC1CCCCC1C (stereo unspecified) the results were VDR inh -9%.
For Cc1ccc(-c2nc(SCC(=O)c3c(N)n(C4CC4)c(=O)[nH]c3=O)n[nH]2)cc1 the results were VDR inh 12%.
For O=C(Cn1cncn1)N/N=C/c1ccncc1 the results were VDR inh -3%.
`CSc1ccccc1NC(=O)CN(C)C(=O)COc1ncnc2ccccc12` gave VDR inh -17%.
Screening Cc1ccc(NC(=S)N/N=C2\CC3CC=CC23)c(C)c1 (stereo unspecified) returned VDR inh inconclusive.
For COC(=O)c1ccccc1NC(=O)CNC(=O)c1ccc(OC)c(OC)c1 the results were VDR inh 6%.
For CCOC(=O)C(C)N1C(=O)S/C(=C/c2cc(C)n(-c3ccccn3)c2C)C1=O (stereo unspecified) the results were VDR inh -11%.
`O=[N+]([O-])c1cccnc1Oc1ccccc1F` gave VDR inh -11%.
For CCn1cc(C(=O)NCCc2ccccc2)c(=O)c2cc(S(=O)(=O)N(C)C3CCCCC3)ccc21 the results were VDR inh 5%.
COc1cc2c(c(OC)c1OC)C(c1ccc3c(c1)OCO3)CC(=O)O2 (stereo unspecified) was read as VDR inh -2%&-19%.
Screening O=C(O)c1cccc(NC2=C(n3nnc4ccccc43)C(=O)c3ccccc3C2=O)c1 returned VDR inh -16%.
`CN(C)CCCN(CCCNC(=O)/C=N/O)Cc1ccccc1` gave VDR inh 3%.
For CC(C)c1ccc(C(=O)CC2(O)C(=O)N(CN3CCOCC3)c3ccccc32)cc1 (stereo unspecified) the results were VDR inh 9%.
`COCCOC(=O)/C(=C/c1ccc(OC(=O)c2ccccc2)cc1)C(C)=O` gave VDR inh 22µM*.
Cc1cc(C)cc(NC(=O)CN2CCN(c3ncccn3)CC2)c1 was read as VDR inh 6%.
Screening CC(=O)N1CCc2c(sc3c2c(=O)n(-c2ccc(C)cc2)c(=O)n3Cc2c(F)cccc2Cl)C1 returned VDR inh 4%.
O=C(O)c1ccccc1NS(=O)(=O)c1ccc(NN=Cc2ccccc2F)c([N+](=O)[O-])c1 was read as VDR inh inconclusive.
Screening Cc1cccn2c(=O)c(C=Nc3ccc(Cl)cc3)c(NCCO)nc12 returned VDR inh 18%.
For O=C(/C=C/c1ccccc1)N1CCN(CCN2C(=O)c3cccc4cccc(c34)C2=O)CC1 the results were VDR inh -9%.
`COc1ccc(CNC(=O)CCc2c(C)nc3c(c2C)c(=O)n(C)c(=O)n3C)cc1` gave VDR inh -10%.
`O=C(COC(=O)c1ccc(Cl)nc1)Nc1ccccc1OC(F)F` gave VDR inh 10%.
For CCCNC(=S)N1CC2(C)CN(C(=O)C(=O)OC)CC(C)(C1)C2=O the results were VDR inh -2%.
For Fc1ccc(-c2noc3ncnc(NCC4CCN(Cc5ccc(Cl)cc5)CC4)c23)cc1 the results were VDR inh -7%.
`O=C(NC1CCCCCC1)c1ccc2c(=O)n3c(nc2c1)CCCCC3` gave VDR inh -8%.

By substructure: those above containing a nitro group on carbon (10)
CCOC(=O)N1CCN(c2ccc([N+](=O)[O-])cc2)CC1 was read as VDR inh -18%.
Screening COc1cccc(-n2c(CCn3nc(C)c([N+](=O)[O-])c3C)n[nH]c2=S)c1 returned VDR inh 7%.
CCC(=O)NC(=S)Nc1ccc(NC(=O)c2ccc([N+](=O)[O-])cc2)cc1 was read as VDR inh -9%.
COc1ccc(CCNC(=O)c2ccc(-c3ccc([N+](=O)[O-])cc3)o2)cc1OC was read as VDR inh -13%.
CCN(CC(=O)NCc1cccs1)C(=O)c1ccc([N+](=O)[O-])o1 was read as VDR inh -18%.
For Cc1ccc(SCC(=O)Nc2cc([N+](=O)[O-])ccc2O)cc1 the results were VDR inh inconclusive.
Screening Nc1ccccc1Sc1ccc(C(F)(F)F)cc1[N+](=O)[O-] returned VDR inh 8%.
For CC(OC(=O)c1ccc(-c2ccc([N+](=O)[O-])cc2)o1)C(=O)NC(N)=O (stereo unspecified) the results were VDR inh 7%.
`O=[N+]([O-])c1cccnc1Oc1ccccc1F` gave VDR inh -11%.
O=C(O)c1ccccc1NS(=O)(=O)c1ccc(NN=Cc2ccccc2F)c([N+](=O)[O-])c1 was read as VDR inh inconclusive.
